VDR inhibitor = blocks the human vitamin D receptor; P11473; VDR-SRC2-3 peptide fluorescence polarization, 2 h; Potency, µM, inactives show max response, negative = inhibition, most hits filed as inhibitors; hit rate 0.93% among 400,000; active means well fitted inhibition curve with a large enough effect; inconclusive means small, poorly fitted or top-dose-only effect, or another doubt; inactive means no such curve, though single readings can be large or run the other way; further: series mostly up to about 120 µM
Target sequence (P11473 whole entry, looked up): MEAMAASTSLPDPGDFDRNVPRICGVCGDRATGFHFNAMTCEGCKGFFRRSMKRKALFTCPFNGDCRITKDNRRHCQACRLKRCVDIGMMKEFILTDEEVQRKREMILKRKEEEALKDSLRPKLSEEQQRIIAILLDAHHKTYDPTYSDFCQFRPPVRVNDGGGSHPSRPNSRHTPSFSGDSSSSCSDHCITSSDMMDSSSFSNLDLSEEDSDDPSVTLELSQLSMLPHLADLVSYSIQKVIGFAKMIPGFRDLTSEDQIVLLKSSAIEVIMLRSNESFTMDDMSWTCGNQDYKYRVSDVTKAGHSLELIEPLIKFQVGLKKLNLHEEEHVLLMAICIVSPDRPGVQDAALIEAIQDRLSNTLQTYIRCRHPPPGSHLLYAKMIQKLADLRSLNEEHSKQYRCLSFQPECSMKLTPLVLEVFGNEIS
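Reagent solutions, kept cold and dark, are dispensed first; compounds are then pinned in at 23 nl, plates briefly spun, and incubated 2 h at ambient temperature. Inhibition of VDR–SRC2-3 peptide binding is read by fluorescence polarization.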
* hit, by the source's call; ? = inconclusive; [ ] = another dose, or the depositor's remark. On the % scale 0 is the no-effect control and ±100 the full control effect; potency means the concentration at half of the fitted maximal effect. Not all compounds are listed. The share of hits here may be higher or lower than overall.

| VDR inhibitor | molecule |
| --- | --- |
| -10.0% | O=C(N/N=C/c1ccc2c(c1)OCO2)c1ccc2c(c1)OCCO2 |
| -10.1% | CN(C)C(=O)c1ccc(NC(=O)c2cccnc2)cc1 |
| -5.3% | CCCCn1c(CNC(=O)C23CC4CC(CC(C4)C2)C3)nnc1SCC(=O)Nc1ccc(C)cc1 |
| -0.9% | O=C(N/N=C/c1cc(Br)cc(Br)c1O)c1cccc(S(=O)(=O)N2CCOCC2)c1 |
| 9.5% | COC(=O)c1cc(S(=O)(=O)N2CCN(c3ccc([N+](=O)[O-])cc3)CC2)c[nH]1 |
| 9.2% | Nc1c(Cl)ncnc1NCC(O)CO (centres undefined) |
| -26.8% | Cc1ccc(C)c(/C(O)=C2/C(=O)C(=O)N(CCN3CCOCC3)C2c2ccco2)c1 (centres undefined) |
| 12.4% | CSc1ncc2c(n1)-c1ccccc1N(Cc1ccc(Cl)cc1)S2(=O)=O |
| -27.5% | O=C(CN1CCN(c2ncccn2)CC1)Nc1ccccc1-n1cccc1 |
| 44.7µM* | N#CC1C(=O)c2ccccc2C1c1ccccc1 (centres undefined) |
| -9.1% | CC(CNC(=O)c1ccc(N)cc1)NC(=O)c1ccc(N)cc1 (centres undefined) |
| -11.0% | C/C(CC1(O)C(=O)N(Cc2ccccc2)c2ccccc21)=N\O (centres undefined) |
| 2.4% | CCN(CC)S(=O)(=O)c1ccc(N=Nc2c(N)[nH]c(=O)[nH]c2=O)cc1 |
| 3.7% | O=C(C1CC(Cl)CN1S(=O)(=O)c1ccc(Cl)cc1)N1CCOCC1 (centres undefined) |
| -2.3% | Cc1cnc(C(=O)OCC(=O)c2cc(C)n(C)c2C)cn1 |
| -22.7% | CN(C(=O)COC(=O)c1sc2ccccc2c1Cl)C1CCCCC1 |
| 2.4% | O=c1n(Cc2ccccc2)c2cc(Cl)cnc2n1Cc1ccccc1 |
| -1.4% | CC(=O)c1cccc(N(C(=O)CS(=O)CC(=O)Nc2ccc(F)cc2)C(C(=O)NC2CCCCC2)c2ccc(C)o2)c1 (centres undefined) |
| -5.3% | COC(=O)c1cn(NC(=O)Cc2cccc(C(F)(F)F)c2)c(=O)c2ccccc12 |
| ? | COc1ccc(C(=O)/C=C/c2cc(C(=O)O)cc3c2OCOC3)c(O)c1 |
| 6.2% | CCOc1cc(C(=O)Nc2cc(C)ccn2)cc(OCC)c1OCC |
| 11.3% | Cc1cccc(NC(=O)CCc2c(C)nc3c(c(C)nn3C(C)(C)C)c2C)c1C |
| ? | CC(=O)Nc1ccc(S(=O)(=O)NCC(CCC(=O)O)C(F)(F)F)cc1 (centres undefined) |
| -3.0% | CCOc1ccc(-c2nnc(-c3ccco3)o2)cc1OCC |
| 3.0% | CC(C)N(CCNC(=O)c1cn(C)c2ccc(S(=O)(=O)N(C)C)cc2c1=O)Cc1ccccc1 |

Next entries
| VDR inhibitor | molecule |
| --- | --- |
| -11.8% | COc1ccc(C(C(=O)NC(C)(C)C)N(CCO)C(=O)CCC(=O)Nc2cc(C)on2)cc1 (centres undefined) |
| -9.8% | Cc1ccc(S(=O)(=O)NCc2ccc3[nH]c(C)cc3c2)cc1 |
| -12.4% | COc1cc(C(CC(=O)Nc2ccc(C)cn2)N2Cc3ccccc3C2=O)cc(OC)c1OC (centres undefined) |
| 2.8% | O=c1n(Cc2cccc(F)c2)c2ccccc2c2nc(-c3ccccc3)nn12 |
| 19.0% | Cn1c(OCc2cccnc2)nc2c1c(=O)n(Cc1ccc(Cl)cc1)c(=O)n2C |
| -28.1% | COc1ccccc1OCC(O)CNCc1ccc2c(c1)OCO2 (centres undefined) |
| 11.7% | CCc1ccc(-n2nc(CO)c(C(=O)NCc3ccccc3Cl)n2)cc1 |
| -16.6% | Cc1ccc(-n2nc3cc(C)c(NC(=O)c4ccc(-c5ccccc5)o4)cc3n2)cc1 |
| ? | Fc1ccc(CN2CCN(C(=S)NCCc3ccccc3)CC2)c(Cl)c1 |
| 3.4% | Cc1nc(-c2ccc(Cl)cc2)sc1CCNC(=O)c1ccco1 |
| 3.5% | CCC(C(=O)NCCCN1CCCC1=O)n1c2ccccc2c2nc(=O)cc(C)n21 (centres undefined) |
| 11.3% | COc1cc(C(=O)OCC(=O)Nc2cc(C)on2)cc(OC)c1OC |
| -20.4% | CCN1C(=O)C2C(c3ccc(O)c(OC)c3)NC(C)(C(=O)OC)C2C1=O (centres undefined) |
| 4.5% | Cc1cc2oc(=O)cc(CSc3nc(N)cc(N)n3)c2cc1C |
| ? | CN1CCN(C(c2ccc(Br)cc2)c2cc(Cl)c3cccnc3c2O)CC1 (centres undefined) |
| -6.1% | COc1ccc(S(=O)(=O)N2CCCCCC2)cc1C(=O)NC1(C)CCS(=O)(=O)C1 (centres undefined) |
| -5.2% | Cc1ccc(NC(=O)c2nc[nH]c2C(=O)NCCCCCCNC(=O)c2[nH]cnc2C(=O)Nc2ccc(C)cc2)cc1 |
| 4.7% | CCOC(=O)c1ccc(NC(=O)CN2C(=O)NC3(CCCCCC3)C2=O)cc1 |
| -0.9% | Cc1onc(COc2ccccc2O)c1Br |
| -2.6% | CCC(CC)C(=O)Nc1nnc2n1CCS2 |
| 31.9%[activator] | O=C(CCc1ccccc1)Nc1ccc(N2CCOCC2)c(Cl)c1 |
| -8.7% | CCCCOc1ccc(C(=O)NCC2(c3ccc(OC)cc3)CCOCC2)cc1 |
| -9.4% | OC(CN1CCN(c2cccc(Cl)c2)CC1)c1ccc(F)cc1 (centres undefined) |
| 1.6% | CCOC(=O)c1cnn(CCOC(=O)c2ccccc2F)c1NC(=O)c1ccccc1F |
| -9.1% | COC(=O)c1ccccc1NC(=O)N1CCN(c2ccc(OC)cc2)CC1 |

The list goes on:
| VDR inhibitor | molecule |
| --- | --- |
| -1.3% | Cc1ccc(C(C)NC(=O)c2ccncc2)cc1C (centres undefined) |
| -1.6% | Cc1c(C(=O)NC(=S)Nc2ccc(NC(=O)c3cccs3)cc2)cccc1[N+](=O)[O-] |
| 3.2% | Cc1cc(C)cc(NC(=O)CCS(=O)(=O)c2ccc3nc(C)sc3c2)c1 |
| 11.4% | O=c1cc[nH]c2ccc(Cl)cc12 |
| -6.8% | COc1ccc(C(CNC(=O)CSc2ccc(Br)cc2C)N2CCOCC2)cc1 (centres undefined) |
| 16.7% | CN(C)S(=O)(=O)c1ccc(C(=O)N2CCN=C2SCc2ccccc2)cc1 |
| 9.1% | CC(=O)Nc1cccc(C(=O)OC2CCOC2=O)c1 (centres undefined) |
| 4.7% | CCN(CC)S(=O)(=O)c1ccc(Cl)nc1 |
| -13.9% | COc1ccc(C(=O)N2CCN(C3CCN(Cc4ccccc4)CC3)CC2)cc1OC |
| -5.7% | COc1ccc2c(c1)SC1=NCCS(=O)(=O)N12 |
| 8.3% | COc1ccc(-c2cn[nH]c2C)cc1 |
| -8.0% | O=S(=O)(c1ccc2c(c1)OCCO2)N1C[C@@H]2C[C@H]1CN2S(=O)(=O)c1c(F)cccc1F |
| -9.0% | COc1ccc(NC(=O)C2CCCN2C(=O)Oc2ccccc2)cc1 (centres undefined) |
| -11.9% | COc1ccc(-c2ccc(OC)c([C@H]3[C@@H]4C=CCC[C@@]4(C)C(=O)N3Cc3ccccc3)c2)cc1OC |
| 12.3% | Nn1c(Nc2ccc(Cl)cc2)nncc1=O |
| -15.0% | COc1cc(/C=N/NC(=O)/C(=C\c2ccc3c(c2)OCO3)NC(=O)c2ccccc2)ccc1O |
| 3.8% | c1ccc(Nc2nc(NCCN3CCOCC3)nc(Nc3ccccc3)n2)cc1 |
| 6.3% | C#CCSc1nnc(-c2c[nH]c3ccccc23)n1C |
| -2.6% | CCOC(=O)C1=C(COC(=O)c2ccccc2OC(F)F)NC(=O)NC1C (centres undefined) |
| -0.1% | O=C(CN1CCCN(Cc2cccc(Cl)c2)S1(=O)=O)Nc1ccc2c(c1)OCCO2 |
| 1.9% | COc1ccc(N(CC(=O)NCCC2=CCCCC2)S(=O)(=O)c2ccccc2F)cc1 |
| -5.7% | N#Cc1c(N)nc2c(c1-c1ccc(F)cc1)c(=O)nc1sccn12 |
| -9.5% | Cc1ccc(C(C)C)c(OCC(=O)NC2CCN(C)CC2)c1 |
| 0.6% | Cc1ccc(C)c(NC(=O)Cn2c(=O)n(Cc3ccccc3)c(=O)c3oc4ccccc4c32)c1 |
| 0.7% | CCCOc1ccc(C(C)=O)cc1CC(C(N)=O)C(N)=O |

(cont.)
| VDR inhibitor | molecule |
| --- | --- |
| 2.7% | Cc1ccc(C(=O)NC(Cc2ccccc2C(F)(F)F)C(=O)O)cc1 (centres undefined) |
| 2.8% | N/C(=N\OC(=O)COc1ccccc1)c1ccncc1 |
| -23.3% | CC(C)C[C@@H](CN)NC(=O)c1nc[nH]c1C(=O)N[C@@H](C)C(=O)CNC[C@H](C)NC(=O)c1nc[nH]c1C(=O)N[C@@H](CC(C)C)C(=O)O |
| -9.5% | CCN(CC)S(=O)(=O)c1ccc(C)c(NC(=O)COC(=O)CNC(=O)c2ccc(C(C)(C)C)cc2)c1 |
| -26.0% | CCc1ccc(NC(=O)CN(CC(=O)Nc2ccc(CC)cc2)CC(C)O)cc1 (centres undefined) |
| -6.4% | O=C(N[C@@H]1C/C=C\C[C@@H](CC(=O)N(CCO)Cc2ccccc2)C(=O)N[C@@H](c2ccccc2)COC1=O)OCC1c2ccccc2-c2ccccc21 |
| 0.8% | Cc1ccc(C)c(NC(=O)CSc2nnc(C3CCCCC3)o2)c1 |
| -21.3% | COCCSc1nnc(NC(=O)c2ccc(NC(=O)C(C)C)cc2)s1 |
| -7.6% | S=C(Nc1ccc(Cl)cc1)NC1CC2CCC(C1)N2Cc1ccccc1 (centres undefined) |
| -8.7% | Cc1ccc(C(=O)CSc2cc(C)nc(SCC(=O)c3ccccc3)n2)cc1 |
| -18.9% | COC(=O)/C(C#N)=C/c1ccc(OC(=O)c2ccccn2)cc1 |
| 13.5% | COc1ccc(N=Nc2cc(C)ccc2O)cc1 |
| -3.0% | C=CCOc1ccc(/C=N/NC(=O)C(C)Sc2ccccn2)cc1OCC (centres undefined) |
| -7.5% | Cc1ccc(NC(=O)N2N=C(c3ccc(F)cc3)CC2c2ccc(F)cc2)cc1 (centres undefined) |
| -12.6% | COC(=O)c1ccc(NC(=S)N2CCCC2)cc1 |
| 6.3% | CCCCCCc1cc2cc(C(=O)OCC)c(=O)oc2cc1O |
| 2.5% | O=C(NCc1cccs1)C1CCCN1C(=O)Nc1ccccc1[N+](=O)[O-] (centres undefined) |
| 4.9% | O=C(NCC1CCCC(CNC(=O)N2CCc3ccccc32)C1)N1CCc2ccccc21 (centres undefined) |
| -13.8% | CC(C)NC(=S)NN=C1CCC(c2ccccc2)CC1 (centres undefined) |
| -13.0% | Nc1cc(SCc2ccc([N+](=O)[O-])cc2)ncn1 |
| 15.7% | CN(C)c1ccc(NC(=S)N2CCN(c3ncc(C(F)(F)F)cc3Cl)CC2)cc1 |
| -15.6% | COc1ccc(-c2nnc(SCc3cccc(C)c3)n2N)cc1 |
| 3.3% | Cc1ccccc1C(=O)N(C)c1ccccc1C(=O)NCc1ccccc1 |
| 6.4% | O=C(O)CS(=O)CC(=O)Nc1cccc(C(F)(F)F)c1 (centres undefined) |
| 17.0% | COc1cccc(/C=N/NC(=O)C[n+]2ccccc2)c1OC |

Carrying on:
| VDR inhibitor | molecule |
| --- | --- |
| -15.2% | CCOC(=O)c1c(C)oc2cc(Sc3ccccc3)c(O)c(O)c12 |
| 10.2% | COc1cccc2cc(-c3nc(-c4ccc(C)cc4)c(C)s3)c(=O)oc12 |
| -18.1% | N#CC(CCc1ccccc1[N+](=O)[O-])(CCc1ccccc1[N+](=O)[O-])C(N)=O |
| -5.5% | COc1ccc(S(=O)(=O)N2CCCCC2)cc1NC(=O)c1cnc(C)cn1 |
| 14.8% | Cc1cc(=O)n2nc(N(C)CC(=O)NCc3ccccc3C)sc2n1 |
| ? | CC1=NN(c2ccc(C)c(C)c2)C(=O)C1C(c1cccc(O)c1)C1C(=O)N(c2ccc(C)c(C)c2)N=C1C (centres undefined) |
| -7.0% | O=C(COC(=O)/C=C/c1ccccc1[N+](=O)[O-])Nc1ccc(OCc2ccccc2)cc1 |
| -12.3% | COc1nc(C)ccc1-c1noc(-c2ccncc2)n1 |
| 0.4% | CCOc1ccc(-n2c(SCc3ccc([N+](=O)[O-])cc3)nnc2-c2ccccc2)cc1 |
| 7.7% | CN(C1CCCCC1)S(=O)(=O)c1ccc2c(c1)c(=O)c(C(=O)NCCN1CCCC1)cn2C |
| 12.9% | Cc1c(C(=O)N2CCc3ccccc3C2)oc2ccccc12 |
| -9.2% | CC(=O)N1N=C(c2ccco2)CC1c1ccco1 (centres undefined) |
| -9.9% | CC(=O)c1cc2c(cc1N(C(=O)c1ccco1)C(C(=O)NC1CCCC1)c1ccccc1F)OCO2 (centres undefined) |
| 2.8% | COc1ccc(C(=O)N2CCC3(CC2)NCCc2[nH]cnc23)cc1OC |
| 8.4% | O=C(Nc1cccnc1)c1ccc([N+](=O)[O-])o1 |

Screening results: PubChem, National Center for Advancing Translational Sciences (NCATS)
